High-throughput results: PubChem, Southern Research Institute
Mtb H37Rv: Mycobacterium tuberculosis H37Rv growth inhibition, cell based, confirmatory dose response (AID 1949); M. tuberculosis H37Rv growth inhibition; most inactive calls were filed without a number and no value below 0 was filed; inhibition, % at 10 µg/mL, or IC50 in µg/mL where a hit was titrated; hit rate 1.6% among 100,000;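 active = confirmed in a dose series; inconclusive = about 50% or more but not retested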;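 note: bacteria grown 7 days with compound before Alamar blue readout; 0% = untreated bacteria and 100% = reference antibiotic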
An asterisk follows results filed as active; i = inactive; ? = inconclusive.

SMILES,Mtb H37Rv
COc1cc(OC)c(C(=O)N2CCC(C(N)=O)CC2)cc1OC,i
O=C(NC(=S)NCc1ccc(-c2nc3ccccc3s2)cc1)c1ccco1,i
CCOC(=O)c1c(C)n(-c2ccc(C)cc2)c2ccc(O)c(CN(C)C)c12,10.9µg/mL*
CC(C)n1c(-c2ccncc2)n[nH]c1=S,i
CC(O)CNC(=O)C(=O)NCCc1ccccc1 (stereo unspecified),i
COCCNS(=O)(=O)c1ccc(SC)cc1,i
O=C(CN(c1cccc(C(F)(F)F)c1)S(=O)(=O)c1ccccc1)NC1CCCCC1,i
COc1c(Cl)cc(Cl)cc1C(=O)Nc1sc2c(c1C#N)CCC(C)C2 (stereo unspecified),i

Reprinted from the part before: 2 entries; new compounds follow.
SMILES,Mtb H37Rv
O=C(CN(c1cccc(C(F)(F)F)c1)S(=O)(=O)c1ccccc1)NC1CCCCC1,i
COc1c(Cl)cc(Cl)cc1C(=O)Nc1sc2c(c1C#N)CCC(C)C2 (stereo unspecified),i
COc1cccc(-n2cnc3scc(-c4ccc(Cl)cc4)c3c2=O)c1,2.6%
CCc1cccc2c(C#N)cn(CC(=O)N3CCc4ccccc4C3)c12,i
COc1ccc(C(=O)NCCc2c[nH]c3ccccc23)cc1OC,i
COc1ccc(S(=O)(=O)N(CCO)Cc2ccccc2)cc1,i
COc1ccc(-c2nn(CC(=O)O)cc2C=O)cc1,i
CCCCOc1ccccc1NC(=S)N(C)C,i
COc1ccc(S(=O)(=O)N(C)Cc2ccccc2)cc1OC,i
CC(C)(C)NS(=O)(=O)c1ccc(NC(=O)c2c(Cl)cccc2Cl)cc1,i
Cn1c(CC(=O)Nc2ccccc2)nnc1SCC(=O)c1ccccc1,i
Cc1c(Cl)cccc1N(CC(=O)Nc1cccc(C(F)(F)F)c1)S(C)(=O)=O,12.4%
Cc1cc(C)n(-c2nnc3n2N=C(c2ccccc2)CS3)n1,0.3%
Cc1ccc(CN(c2ccc(C(=O)Nc3ccccc3C(=O)NCc3ccco3)cc2)S(C)(=O)=O)cc1,15.5%
O=[N+]([O-])c1cccc(NC(=S)NCCn2cc(Br)cn2)c1,?
COC(=O)c1ccc(C2NC(=O)NC(C)=C2C(=O)Nc2ccccc2)cc1 (stereo unspecified),i
O=C(C1CCN(S(=O)(=O)c2ccc(Cl)cc2)CC1)N1CCc2ccccc2C1,i
CCc1ccccc1OCC(=O)Nc1cccc(C)c1,i
O=C(c1cccs1)N1N=C(c2cccs2)CC1c1ccco1 (stereo unspecified),i
CCOc1ccccc1-c1nc(-c2ccc(NC(=O)c3ccco3)cc2)no1,9.4%
CN(C)CCOc1ccc(Cl)cc1C(C)(C)C,i
CCCn1nnc(NC(=O)c2ccc(OCC)c([N+](=O)[O-])c2)n1,i
Cc1cc(C)n(-c2ccc(Cl)c(C(=O)OCc3ccc([N+](=O)[O-])cc3)c2)n1,i
CS(=O)(=O)N1CCN(C(=O)c2ccccc2F)CC1,i
COCCN1C(=O)C(O)=C(C(=O)c2ccc(C)o2)C1c1ccc(OC)cc1 (stereo unspecified),3.8%
COC(=O)c1cc(NC(=O)c2ccc(CN3CCc4ccccc4C3)cc2)ccc1Cl,i
Cc1cc(C)c2c(CC(=O)NN3CCN(C)CC3)coc2c1,i
O=C(Nc1nccs1)c1cc(S(=O)(=O)N2CCOCC2)c(Cl)cc1Cl,i
COC(=O)CCCOc1ccc(C2CCCCC2)cc1,i
COc1c(S(=O)(=O)NCc2ccc3c(c2)OCO3)ccc(Cl)c1Cl,i
CN(c1ccccc1C(=O)Nc1cc(Cl)cc(Cl)c1)S(C)(=O)=O,i
CCOc1ccc(CC(=O)NCc2ccccc2)cc1OCC,i
Cc1cc(C)c(C)c(S(=O)(=O)NCC(=O)N2CCCC2)c1C,i
COCCn1c(SCc2cccc([N+](=O)[O-])c2)nnc1-c1ccc(Cl)cc1,i
Cc1c(C(=O)NCc2ccccc2F)oc2ccccc12,i
O=C(CCSc1ccc(Cl)cc1)N1CCc2ccccc2C1,i
CCC(Oc1ccccc1)c1nc(-c2cccc(C)c2)no1 (stereo unspecified),i
CCNS(=O)(=O)c1ccc(CCC(=O)N2CCN(Cc3ccc4c(c3)OCO4)CC2)cc1,i
COc1ccc(N2CCN(C(=O)N3CCOCC3)CC2)cc1,i
CCOC(=O)c1sc(N2C(=O)c3oc4ccc(Br)cc4c(=O)c3C2c2ccc(C(=O)OC)cc2)nc1C (stereo unspecified),i
CCCNC(=O)C(=O)Nc1ccc(OCCC)cc1,0.2%
Cc1cc(C(F)(F)F)c2c(n1)sc1c(O)c(Br)c(=O)[nH]c12,i

In the list so far, these have a CF3 group.
SMILES,Mtb H37Rv
O=C(CN(c1cccc(C(F)(F)F)c1)S(=O)(=O)c1ccccc1)NC1CCCCC1,i
Cc1c(Cl)cccc1N(CC(=O)Nc1cccc(C(F)(F)F)c1)S(C)(=O)=O,12.4%
Cc1cc(C(F)(F)F)c2c(n1)sc1c(O)c(Br)c(=O)[nH]c12,i

Additional compounds:
SMILES,Mtb H37Rv
O=C(O)C1C2C=CC(C2)C1C(=O)OC1CC2CCC1C2 (stereo unspecified),i
Cc1cccc(C)c1NC(=O)COc1cc2oc(=O)c3c(c2cc1Cl)CCC3,i
O=C(c1cccs1)N1CCN(c2nnnn2-c2ccccc2)CC1,i
COc1ccc(CCCc2nnc(SCC(=O)Nc3cc(C(F)(F)F)ccc3Cl)n2C)cc1,i
O=C(Nc1ccc(-c2cc3ccccc3oc2=O)c(Cl)c1)c1cccnc1,i
O=S(=O)(Nc1ccccc1O)c1ccc(-c2ccccc2)cc1,i
Fc1ccccc1NC(=S)N1CCN(C2CCCCC2)CC1,i
CCCN(C)S(=O)(=O)c1ccc(I)cc1,3.5%
COc1ccccc1OCCCSc1nc2sc(C)c(C)c2c(=O)n1-c1ccccc1,i
Cc1ccc(S(=O)(=O)N(CCO)C2CC(C)(C)N(O)C(C)(C)C2)cc1,3.6%
CC(=O)c1cccc(NC(=O)CN(C)S(=O)(=O)c2cc(Cl)ccc2Cl)c1,i
CCn1c(SCC(=O)Nc2cc3oc4ccccc4c3cc2OC)nnc1-c1cccs1,45.5%
O=C(Nc1cccc2ccccc12)c1cccc([N+](=O)[O-])c1,i
Cc1c(N)cccc1-c1nn2c(C)nnc2s1,i
Cc1ccc(C(=O)CSc2nc3sc(C)c(C)c3c(=O)[nH]2)cc1,i
COc1ccc(CCNC(=S)Nc2cccc(C(F)(F)F)c2)cc1OC,i
O=C1OCCC1Sc1nc(-c2ccccc2)cs1 (stereo unspecified),i
CCOC(=O)c1c(NC(=O)COc2ccc(Cl)cc2)sc(C(=O)Nc2ccccc2F)c1C,i
O=C(c1ccco1)N1CCN(c2ncnc3scc(-c4ccccc4)c23)CC1,0.1%
CS(=O)(=O)NCc1ccc(Cl)cc1Cl,i
CC1CN(c2oc(COc3ccc(Br)cc3)nc2C#N)CC(C)O1 (stereo unspecified),i
CCOc1ccc(-c2nnc(SCC(=O)O)n2Cc2ccccc2)cc1,i
Fc1ccc(NC(=S)NCc2ccccn2)c(F)c1,i
COc1ccc(N2CCN(C(=O)c3cc(C)cc(C)c3)CC2)cc1,i

Remaining list, next part:
Molecule	Mtb H37Rv
COc1cccc(N/C(N)=N/c2nc(C(F)(F)F)cc(=O)[nH]2)c1	3.4%
COc1ccc(Nc2nc(-c3ccc(OC)c(OC)c3)cs2)cc1	i
Cn1cc(/C=C(/C#N)c2ccc(C(=O)O)cc2)c2ccccc21	i
O=C(CSc1nc2ccccc2c(=O)[nH]1)Nc1ccc(Cl)cc1Cl	i
N/C(=N\OC(=O)c1cccs1)c1ccncc1	i
COc1ccc(NC(=S)NCc2cccnc2)cc1	6.8%
COc1ccc(C(=O)Nc2c(C)cccc2C)cc1Cl	5.3%
CC(C)c1ccccc1NC(=O)CN(c1cccc(Br)c1)S(=O)(=O)c1ccccc1	i
C/C(=N\O)c1oc2ccc3c(C)cc(=O)oc3c2c1-c1ccccc1	i
S=c1[nH]nc(-c2ccco2)n1-c1cccc2ccccc12	i
CCc1c(C)nc(N)nc1N1N=C1SCC#N	i
Cc1cc(I)ccc1NC(=O)c1ccc(N(C)S(C)(=O)=O)cc1	i
COC(=O)Nc1ccc(OC)cc1OC	i
COc1cccc(N2C(=O)/C(=C/c3ccc(C)cc3)SC2=S)c1	i
CS(=O)(=O)c1ccc2nc(NC(=O)c3c(F)cccc3F)sc2c1	i
CS(=O)(=O)N(Cc1ccccc1)c1ccccc1C(=O)Nc1ccc(Br)c(Cl)c1	i
Cc1n[nH]c(C)c1CCCOc1c(C(C)C)cccc1C(C)C	?
COc1ccc(/C(N)=N/OC(=O)Oc2ccccc2)cc1OC	i
O=C(Nc1ccncc1)c1cncc(Br)c1	i
Brc1ccc(NCc2ccncc2)cc1	i
Cc1ccc(-c2c(C)sc3nc[nH]c(=O)c23)cc1	i
Cc1ccc(C(=O)Oc2ccc(Cl)c3cccnc23)cc1[N+](=O)[O-]	0.94µg/mL*
COc1ccc(C(=O)n2nnc3ccccc32)cc1I	2.0%
COCCCN1C(=O)c2ccc(C(=O)Oc3ccc(C(C)(C)C)cc3)cc2C1=O	0.9%
O=C(CC1C(=O)N(c2ccc(F)cc2)C(=S)N1CCc1ccc(Cl)cc1)Nc1ccccc1 (stereo unspecified)	i
O=C(O)C1CCCCC1C(=O)NCCc1ccc(Cl)cc1 (stereo unspecified)	i
CC(=O)NCCc1ccc(S(=O)(=O)NCCc2ccc(Cl)cc2)cc1	3.0%
COCCn1c(SCC(=O)Nc2ccc(F)c(Cl)c2)nnc1-c1ccc(Cl)cc1	i
CC(=O)Nc1ccc(NC(=O)C2CCN(C(=O)c3cccc(Cl)c3)CC2)cc1	i
COC(=O)c1ccccc1NC(=O)c1cccnc1	i
CCOC(=O)c1c(N)n(-c2ccc(OC)c(OC)c2)c2nc3ccccc3nc12	i
COc1cccc(OCCSc2nc(-c3ccccc3)cc(=O)[nH]2)c1	0.5%
CCOC(=O)COc1ccc(-c2ccc(C)cc2)cc1	0.33µg/mL*
COCCNC(=S)NNC(=O)c1cc(Cl)ccc1OC	i
CC1CCCC(C)N1C(=O)CSc1nnc(-c2ccncc2)n1-c1ccccc1 (stereo unspecified)	i
Cc1c(NC(=O)Nc2ccccc2Cl)c(=O)n(-c2ccccc2)n1C	i
COc1ccc(-c2nc(N)sc2-c2ccc(N)cc2)cc1	i
Cc1cc(C=O)c(C)n1-c1cccnc1	i
Cc1ccc(-n2ncc3c(NCC4CCCO4)ncnc32)c(C)c1 (stereo unspecified)	i
COc1ccccc1OCCCC(=O)Nc1nc2ccc(S(C)(=O)=O)cc2s1	i
CCOC(=O)c1cc(CC)sc1NC(=O)CN1C(=O)c2ccccc2C1=O	i
O=C(CC12CC3CC(CC(C3)C1)C2)Nc1cc(C(F)(F)F)ccc1N1CCOCC1	i
O=C(CCN1C(=O)C2C3C=CC(C3)C2C1=O)Oc1ccc(-c2ccccc2)cc1 (stereo unspecified)	i
Nc1nnc(SCC(=O)Nc2nc(-c3ccc(Br)cc3)cs2)s1	i
O=C(O)c1cccc(NCc2ccc(Cl)cc2Cl)c1	i
Cc1ccc(S(=O)(=O)NC(=NCC(=O)O)c2ccc(F)cc2)cc1	i
Cc1[nH]c2ccccc2c(=O)c1CN(C)Cc1ccccc1	i
Cc1nnc(Sc2nc3ccccc3o2)c2ccccc12	i
Cc1cc(Br)ccc1OCC(=O)NC(=S)Nc1ccccc1C(N)=O	i
COc1ccccc1C/C(N)=N/OC(=O)c1ccc(C)cc1	i
O=c1c2ccccc2ncn1Cc1ccc(Br)cc1	1.5%
CC1CC(C)CN(S(=O)(=O)c2ccc(Br)s2)C1 (stereo unspecified)	i
CCCCC(=O)Nc1ccc(C(=O)Nc2ccc3c(c2)OCO3)cc1	i
O=C(Nc1ccc2c(c1)OCO2)C(F)(F)F	i
c1ccc(Cn2c(COc3ccccc3)nc3ccccc32)cc1	7.0%
COc1ccc(CNC(=O)CSc2nc3ccc(NC(=O)c4ccccc4F)cc3s2)cc1	2.2%
O=C(NC1=NCCS1)c1cccc2c(Br)cccc12	?
Cc1ccc(SCc2cc(=O)[nH]c(/N=C(/N)Nc3ccccc3)n2)cc1	i
Cc1ccc(S(=O)(=O)N(CC(=O)NCC2CCCO2)Cc2c(F)cccc2Cl)cc1 (stereo unspecified)	0.1%
Cc1cc(OCC(=O)Nc2ccccc2-c2ccccc2)cc(C)c1Br	i

(continued)
Molecule	Mtb H37Rv
CCOc1ccccc1NC(=O)c1cc(I)ccc1NC(=O)c1ccccc1Cl	i
CCN(CC)S(=O)(=O)c1ccc(NC(=O)COc2ccc(Cl)cc2C)cc1	i
COc1ccc(C(=O)Nc2ccccc2C(=O)Nc2ccccc2C(=O)Nc2ccccc2OC)cc1	5.6%
Cc1nnc(SCc2cccc(C#N)c2)n1Cc1ccccc1	i
CC(=O)Nc1ccc(S(=O)(=O)Nc2cc(Cl)ccc2Oc2ccccc2)cc1	i
CC1(C)C(=O)OC(c2ccc(Cl)cc2Cl)C(C)(C)C1=O (stereo unspecified)	i

A different layout for part of the listing above.
COc1ccc(C(=O)Nc2ccccc2C(=O)Nc2ccccc2C(=O)Nc2ccccc2OC)cc1
- Mtb H37Rv: 5.6%

CC(=O)Nc1ccc(S(=O)(=O)Nc2cc(Cl)ccc2Oc2ccccc2)cc1
- Mtb H37Rv: i

CC1(C)C(=O)OC(c2ccc(Cl)cc2Cl)C(C)(C)C1=O (stereo unspecified)
- Mtb H37Rv: i

Cc1nnc(SCc2cccc(C#N)c2)n1Cc1ccccc1
- Mtb H37Rv: i

Some of the compounds tested; the hit share may differ from the screen's.
